Yeast UUG start: modulators of yeast start codon fidelity, primary screen, whole organism, S. cerevisiae, single point, plate reader | activity score, % at 18.7 µM | AID 602363, 2012 | S. cerevisiae UUG-firefly luciferase reporter, luminescence/redox ratio | 350,000 tested, 0.13% active;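 active = replicate mean at a twofold rise or more, about +100% in these data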;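 note: firefly luciferase made from a UUG start codon reports start codon fidelity; reporter light over untreated wells divided by growth signal over untreated wells; some hits fall short of that in this replicate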
Starred values were filed as active, the others as inactive. Some of the compounds tested; the hit share may differ from the screen's.

SMILES	Yeast UUG start
O=C(C1CCCC1)N1CCCCN2[C@H](CO)[C@@H](c3ccc(C#CC4(O)CCCC4)cc3)[C@H]2C1	14
O=C(c1ccncc1)N1CC[C@@H]2[C@H](CO)Nc3ccc(-c4ccc(F)cc4)cc3[C@@H]21	-13
C[C@@H]1CN([C@H](C)CO)C(=O)c2cccc(NC(=O)NC3CCCCC3)c2O[C@@H]1CN(C)C	-13
CCC(=O)N1C[C@@H]2[C@H](c3ccccc31)[C@H](CO)N2Cc1ccccc1Cl	-4
COc1ccc(S(=O)(=O)N(C)C[C@H]2Oc3ccc(NC(=O)Nc4ccc(F)cc4)cc3C(=O)N([C@@H](C)CO)C[C@H]2C)cc1	-11
CN(C)CC(=O)Nc1ccc2c(c1)[C@H]1C[C@@H](CC(=O)N3CCN(C)CC3)O[C@H](CO)[C@H]1O2	1
C[C@@H]1CN([C@@H](C)CO)C(=O)c2cccc(NS(=O)(=O)c3cccs3)c2O[C@H]1CN(C)C(=O)Nc1ccc2c(c1)OCO2	1
C[C@@H]1CN([C@H](C)CO)C(=O)c2cc(N(C)C)ccc2O[C@@H]1CN(C)C(=O)Nc1ccc(C(F)(F)F)cc1	51
C[C@H](CO)N1C[C@H](C)[C@@H](CN(C)CC2CCCCC2)Oc2ccc(NS(=O)(=O)c3ccc(F)cc3)cc2CC1=O	7
Cn1cnc(S(=O)(=O)N2CCCCN3[C@H](CO)[C@H](c4ccc(-c5cccc(F)c5)cc4)[C@H]3C2)c1	-4
O=S(=O)(c1ccccc1)N1CCCCN2[C@H](CO)[C@@H](c3ccc(C#Cc4ccccc4)cc3)[C@@H]2C1	18
CCNC(=O)C[C@H]1CC[C@H]2[C@@H](COC[C@H](O)CN2C(=O)C2CCCC2)O1	-9
CCC(=O)N1[C@@H](CO)[C@@H]2c3ccccc3N(C(=O)NC(C)C)C[C@@H]21	-3
C[C@H](CO)N1C[C@H](C)[C@@H](CN(C)C(=O)Nc2cccc3ccccc23)Oc2c(NS(=O)(=O)c3cccs3)cccc2C1=O	0
CCC(=O)N1[C@H](CO)[C@@H]2c3ccccc3N(C(=O)c3ccccc3F)C[C@@H]21	-3
COc1ccccc1S(=O)(=O)N1CC[C@@H]2[C@H]1c1cc(-c3ccccc3)ccc1N[C@@H]2CO	-3
Cc1cccc(-c2ccc([C@H]3[C@H](CO)N4CCCCN(S(=O)(=O)c5cccc(C)c5)C[C@@H]34)cc2)c1	-7
Cc1noc(C)c1S(=O)(=O)Nc1ccc2c(c1)C(=O)N([C@H](C)CO)C[C@H](C)[C@H](CN(C)Cc1ccc(C(=O)O)cc1)O2	-12
C[C@@H]1CN([C@H](C)CO)C(=O)Cc2cc(NC(=O)CCN3CCOCC3)ccc2O[C@H]1CN(C)C(=O)Nc1ccccc1	-1
Cc1cccc(S(=O)(=O)N2CC[C@H]3[C@H](CO)Nc4ccc(-c5ccccc5F)cc4[C@H]32)c1	-12

The last two records of the section before are carried over, then new ones follow.
SMILES	Yeast UUG start
C[C@@H]1CN([C@H](C)CO)C(=O)Cc2cc(NC(=O)CCN3CCOCC3)ccc2O[C@H]1CN(C)C(=O)Nc1ccccc1	-1
Cc1cccc(S(=O)(=O)N2CC[C@H]3[C@H](CO)Nc4ccc(-c5ccccc5F)cc4[C@H]32)c1	-12
CNC[C@H]1Oc2ccc(NC(=O)Nc3ccc(F)cc3)cc2C(=O)N([C@H](C)CO)C[C@@H]1C	-9
CC=Cc1ccc2n(c1=O)C[C@@H]1[C@@H](CO)[C@H](C(=O)NCc3ccc(F)cc3)[C@H]2N1S(C)(=O)=O (mixture of isomers)	-4
CCC(=O)N1[C@@H](CO)[C@H](c2ccccc2)[C@@H]1CN(C(C)C)S(C)(=O)=O	11
CN1C(=O)c2cc(NS(=O)(=O)c3cccc(F)c3)ccc2OC[C@@H]2O[C@@H](CC(=O)O)CC[C@H]21	0
CO[C@@H]1CN(C)C(=O)c2cc(NC(=O)NC(C)C)ccc2OC[C@@H](C)N(Cc2ccccn2)C[C@@H]1C	-19
CN(C)CC(=O)Nc1ccc2c(c1)[C@@H]1C[C@H](CC(=O)N3CCN(C)CC3)O[C@H](CO)[C@@H]1O2	-1
C[C@@H]1CN([C@H](C)CO)C(=O)c2cc(NS(=O)(=O)c3ccc(Cl)cc3)ccc2O[C@@H]1CN(C)C(=O)Nc1ccc(F)cc1	6
C[C@H]1CN([C@@H](C)CO)C(=O)Cc2cc(NS(C)(=O)=O)ccc2O[C@@H]1CN(C)C(=O)Nc1ccccc1	-5
CCCN(C)C[C@H]1OCc2cn(nn2)CCCC(=O)N([C@@H](C)CO)C[C@H]1C	-16
CCC(=O)NC[C@H]1N[C@H](CO)[C@@H]1c1ccc(-c2cccc(C#N)c2)cc1	-2
O=S(=O)(c1ccc(F)cc1)N1CCCCN2[C@H](C1)[C@@H](c1ccc(C#CC3CCCC3)cc1)[C@@H]2CO	1
O=C(c1cccnc1)N1CCCCN2[C@@H](CO)[C@H](c3ccc(C#Cc4ccccc4)cc3)[C@@H]2C1	-4
O=C(C[C@@H]1CC[C@H]2[C@@H](COC[C@H](O)CN2Cc2cccc(-c3ccncc3)c2)O1)N1CCCCC1	5
Cc1ccc(S(=O)(=O)Nc2ccc3c(c2)C(=O)N([C@H](C)CO)C[C@@H](C)[C@H](CN(C)C(=O)Nc2ccccc2)O3)cc1	7
Cc1ccc(S(=O)(=O)Nc2ccc3c(c2)C(=O)N([C@H](C)CO)C[C@H](C)[C@H](CN(C)Cc2ccc(Cl)c(Cl)c2)O3)cc1	-1
COCCN(C[C@@H]1N[C@@H](CO)[C@@H]1c1ccc(-c2cccc(F)c2)cc1)C(C)=O	-10
O=C(C1CC1)N1CC[C@@H]2[C@@H](CO)Nc3ccc(-c4cccc(F)c4)cc3[C@@H]21	-12
C[C@@H]1CN([C@@H](C)CO)C(=O)Cc2cc(NS(=O)(=O)c3cn(C)cn3)ccc2O[C@@H]1CN(C)C	-15
C[C@@H]1CN([C@H](C)CO)C(=O)c2cccc(NC(=O)c3cnccn3)c2O[C@@H]1CN(C)C(=O)Nc1ccc(C(F)(F)F)cc1	-8
CO[C@H]1CN(C)C(=O)c2ccc(NC(=O)C3CC3)cc2OC[C@H](C)N(C(=O)C2CCOCC2)C[C@H]1C	-4
CO[C@H]1CN(C)C(=O)c2cc(NC(=O)C3CC3)ccc2OC[C@@H](C)N(Cc2cccc(F)c2)C[C@@H]1C	9
CC(C)NC(=O)N(C)C[C@H]1Oc2c(NC(=O)c3cnccn3)cccc2C(=O)N([C@H](C)CO)C[C@@H]1C	0
CO[C@H]1CN(C)C(=O)c2ccc(NC(=O)C3CC3)cc2OC[C@@H](C)N(C(=O)CN(C)C)C[C@H]1C	-4
CCNC(=O)C[C@@H]1CC[C@H]2[C@@H](COC[C@H](O)CN2C(=O)Nc2c(C)noc2C)O1	-14
C[C@@H]1CN([C@H](C)CO)C(=O)c2cccc(NC(=O)C3CCCCC3)c2O[C@@H]1CN(C)C(=O)Nc1ccc(F)cc1	9
CN(C[C@@H]1[C@@H](c2ccccc2)[C@H](CO)N1C(=O)c1ccccc1)C(=O)C1CCC1	8
CN1C(=O)c2cc(NC(=O)NC3CCCC3)ccc2OC[C@H]2O[C@H](CC(=O)O)CC[C@@H]21	3
C[C@@H]1CN([C@H](C)CO)C(=O)Cc2cc(NC(=O)Cn3cnnn3)ccc2O[C@H]1CN(C)Cc1ccc(Cl)c(Cl)c1	9
C[C@@H]1CN([C@@H](C)CO)C(=O)c2cccc(NC(=O)c3nc4ccccc4s3)c2O[C@@H]1CN(C)C(=O)Nc1ccc2c(c1)OCO2	2
C[C@H]1CN([C@@H](C)CO)C(=O)c2cccc(NC(=O)NC3CCCCC3)c2O[C@H]1CN(C)Cc1ccc(C(=O)Nc2ccccc2N)cc1	0
CO[C@H]1CN(C)C(=O)c2cc(NC(C)=O)ccc2OC[C@@H](C)N(C(=O)c2ccccc2F)C[C@@H]1C	0
O=C(c1ccncc1)N1C[C@H]2[C@@H](c3ccccc31)[C@H](CO)N2C(=O)c1ccccn1	-20
C[C@@H]1CN([C@@H](C)CO)C(=O)c2cccc(NS(=O)(=O)c3ccc(F)cc3)c2O[C@@H]1CN(C)Cc1ccc(Cl)c(Cl)c1	0
CC(C)NC(=O)N(C)C[C@@H]1Oc2ccc(NC(=O)c3ccncc3)cc2CC(=O)N([C@H](C)CO)C[C@H]1C	4
Cc1cccc(S(=O)(=O)N2C[C@@H]3[C@H](c4ccccc42)[C@H](CO)N3Cc2ccc3c(c2)OCO3)c1	3
O=C(c1ccc2c(c1)OCO2)N1C[C@H]2[C@@H](c3ccccc31)[C@@H](CO)N2C(=O)CC1CC1	6
CO[C@@H]1CN(C)C(=O)c2ccc(NC(=O)Nc3ccc(F)cc3)cc2OC[C@@H](C)N(C(=O)c2cnccn2)C[C@H]1C	4
O=C(C[C@@H]1CC[C@@H]2[C@H](COC[C@@H](O)CN2C(=O)c2ccccc2F)O1)NCc1ccc(Cl)cc1	4
CC(C)NC(=O)Nc1ccc2c(c1)C(=O)N([C@@H](C)CO)C[C@@H](C)[C@H](CN(C)Cc1ccc3c(c1)OCO3)O2	-7
Cc1noc(C)c1NC(=O)N(C)C[C@@H]1Oc2c(NC(=O)Nc3cccc4ccccc34)cccc2C(=O)N([C@@H](C)CO)C[C@@H]1C	-6
COc1ccc(CN2[C@@H]3CN(C(=O)CC(F)(F)F)c4ccccc4[C@@H]3[C@@H]2CO)cc1	5
C/C=C/c1ccc([C@@H]2[C@@H](CNC(=O)C3CC3)N(C(=O)CC)[C@H]2CO)cc1	20
C[C@@H]1CN([C@@H](C)CO)C(=O)c2cccc(NC(=O)c3ccc(-c4nccs4)cc3)c2O[C@@H]1CN(C)C(=O)Nc1ccc(C(F)(F)F)cc1	-6
O=C(Nc1cccc(F)c1)N1CCCCN2[C@H](C1)[C@H](c1ccc(C#Cc3ccccc3)cc1)[C@@H]2CO	1
CN1C(=O)c2cc(NC(=O)Cc3cccs3)ccc2OC[C@@H]2O[C@@H](CC(=O)NCC3CCCCC3)CC[C@H]21	6
O=C(c1cccc(F)c1)N1CCCCN2[C@H](CO)[C@@H](c3ccc(-c4ccccc4)cc3)[C@@H]2C1	-9
OC[C@H]1[C@@H](c2ccc(-c3ccc(F)cc3)cc2)[C@@H]2CN(Cc3ccncc3)CCCCN12	-9
CO[C@@H]1CN(C)C(=O)c2ccc(NC(=O)c3cc(C)on3)cc2OC[C@H](C)N(CC2CC2)C[C@H]1C	-9
O=C(C1CCOCC1)N1C[C@H]2[C@@H](c3ccccc31)[C@H](CO)N2C(=O)Nc1ccccc1F	3
CO[C@@H]1CN(C)C(=O)c2cc(NS(C)(=O)=O)ccc2OC[C@@H](C)N(C(=O)c2ccc3c(c2)OCO3)C[C@H]1C	-9
COc1ccc(NC(=O)N(C)C[C@@H]2Oc3c(NC(=O)Nc4c(C)noc4C)cccc3C(=O)N([C@@H](C)CO)C[C@H]2C)cc1	-5
O=C(c1cccc(F)c1)N1C[C@@H]2[C@H](c3ccccc31)[C@H](CO)N2C(=O)C1CCCCC1	2
C[C@@H]1CN([C@@H](C)CO)C(=O)c2cc(NC(=O)Cc3ccccc3)ccc2O[C@H]1CN(C)Cc1ccc(Oc2ccccc2)cc1	-1
Cc1noc(C)c1NC(=O)N(C)C[C@H]1Oc2c(NC(=O)c3ccc(-c4nccs4)cc3)cccc2C(=O)N([C@@H](C)CO)C[C@@H]1C	15
COc1ccc(C(=O)N2C[C@H]3[C@@H](c4ccccc42)[C@H](CO)N3Cc2ccccc2)cc1	8
CC(C)NC(=O)N(C)C[C@@H]1Oc2ccc(NS(=O)(=O)c3ccc(F)cc3)cc2CC(=O)N([C@@H](C)CO)C[C@@H]1C	3
CO[C@@H]1CN(C)C(=O)c2ccc(NC(=O)C3CCOCC3)cc2OC[C@@H](C)N(C(C)=O)C[C@H]1C	147*
COCC(=O)N1C[C@@H]2[C@H](c3ccccc31)[C@@H](CO)N2Cc1ccccc1Cl	0
CC(=O)Nc1ccc2c(c1)C(=O)N(C)[C@H]1CC[C@@H](CC(=O)NCc3ccc(Cl)cc3)O[C@H]1CO2	-3
CC(C)NC(=O)N1C[C@@H]2[C@H](c3ccccc31)[C@H](CO)N2C(=O)Nc1ccc(F)cc1	8
Other compounds:
SMILES	Yeast UUG start
Cn1cnc(CCNC(=O)C[C@H]2CC[C@@H]3[C@H](COC[C@H](O)CN3C(=O)Nc3ccccc3)O2)c1	-1
CN(C)CC(=O)Nc1ccc2c(c1)[C@@H]1C[C@H](CC(=O)NCc3ccc(Cl)cc3)O[C@@H](CO)[C@@H]1O2	26
O=C(NC1CCCCC1)[C@H]1[C@H](CO)[C@H]2Cn3c(cccc3=O)[C@H]2N1CC1CCCCC1	4
COc1ccc(CN(C)C[C@@H]2Oc3ccc(NC(=O)CCC(F)(F)F)cc3C(=O)N([C@H](C)CO)C[C@H]2C)cc1	-3

Grouped by structure: the entries above with a Cl atom (nine)
SMILES	Yeast UUG start
CCC(=O)N1C[C@@H]2[C@H](c3ccccc31)[C@H](CO)N2Cc1ccccc1Cl	-4
C[C@@H]1CN([C@H](C)CO)C(=O)c2cc(NS(=O)(=O)c3ccc(Cl)cc3)ccc2O[C@@H]1CN(C)C(=O)Nc1ccc(F)cc1	6
Cc1ccc(S(=O)(=O)Nc2ccc3c(c2)C(=O)N([C@H](C)CO)C[C@H](C)[C@H](CN(C)Cc2ccc(Cl)c(Cl)c2)O3)cc1	-1
C[C@@H]1CN([C@H](C)CO)C(=O)Cc2cc(NC(=O)Cn3cnnn3)ccc2O[C@H]1CN(C)Cc1ccc(Cl)c(Cl)c1	9
C[C@@H]1CN([C@@H](C)CO)C(=O)c2cccc(NS(=O)(=O)c3ccc(F)cc3)c2O[C@@H]1CN(C)Cc1ccc(Cl)c(Cl)c1	0
O=C(C[C@@H]1CC[C@@H]2[C@H](COC[C@@H](O)CN2C(=O)c2ccccc2F)O1)NCc1ccc(Cl)cc1	4
COCC(=O)N1C[C@@H]2[C@H](c3ccccc31)[C@@H](CO)N2Cc1ccccc1Cl	0
CC(=O)Nc1ccc2c(c1)C(=O)N(C)[C@H]1CC[C@@H](CC(=O)NCc3ccc(Cl)cc3)O[C@H]1CO2	-3
CN(C)CC(=O)Nc1ccc2c(c1)[C@@H]1C[C@H](CC(=O)NCc3ccc(Cl)cc3)O[C@@H](CO)[C@@H]1O2	26

Screening results deposited in PubChem BioAssay by Broad Institute.
